# StopGo FLuc – Primary qHTS Assay for Foot and Mouth Disease Virus Antivirals against NCGC Sytravon and CBC Compound Libraries: Firefly Luciferase Signal; HEK cells with a luciferase reporter of 2A StopGo recoding; Potency, µM (doses to about 57.5 µM), without a hit: top-dose signal change, negative = less light; 120,000 compounds, 0.23% hits; AID 1745856, 2022; active = well fitted falling curve with a large enough effect; inconclusive = small, poorly fitted or top-dose-only effect; inactive = no such curve, though single readings can be large or run the other way; also: nearly all actives have a fitted effect of over 60% in size; overnight with compound
# StopGo RLuc – Primary qHTS Assay for Foot and Mouth Disease Virus Antivirals against NCGC Sytravon and CBC Compound Libraries: Renilla Luciferase Signal | 120,000 compounds, 0.32% hits | HEK cells with a luciferase reporter of 2A StopGo recoding | Potency, µM (highest dose often 57.5 µM), for inactives: at the highest dose signal change, negative = less light; active means well fitted falling curve with a large enough effect; inconclusive means small, poorly fitted or top-dose-only effect; inactive means no such curve, though single readings can be large or run the other way; also: nearly all actives have a fitted effect of over 55% in size; overnight with compound
# * hit, by the source's call; ? = inconclusive; [ ] = dose if it differs, or a comment. % is scaled to controls: 0 for no effect and ±100 for the full control effect; potency is read from the fitted curve at half-maximal effect. The list is partial; rates above refer to the full screens.
# Start of the data: the first two entries as a preview:
SMILES,StopGo FLuc,StopGo RLuc
O=C(NCCc1ccccc1)c1cnc2sc(N3CCCC3)nn2c1=O,-6%,-13%
COc1ccc(C2C=C(c3ccccc3)Nc3nc(NC(=O)/C=C/c4ccccc4Cl)nn32)cc1 (stereo not given),19%,5%

# All compounds of this part (from the top)
SMILES,StopGo FLuc,StopGo RLuc
O=C(NCCc1ccccc1)c1cnc2sc(N3CCCC3)nn2c1=O,-6%,-13%
COc1ccc(C2C=C(c3ccccc3)Nc3nc(NC(=O)/C=C/c4ccccc4Cl)nn32)cc1 (stereo not given),19%,5%
O=C1Nc2ccccc2CCC1n1nc(-c2ccc(Br)cc2)ccc1=O (stereo not given),4%,-12%
Cc1ccccc1Cn1c2ccccc2c2cnn(CC(=O)NC(C)CCc3ccccc3)c(=O)c21 (stereo not given),-18%,-4%
CCOc1ccc(-c2nc(CNC(=O)NC3CCCC3)c(C)o2)cc1,46%[activator],1%
COc1ccc(S(=O)(=O)c2c(SC)nn(CC(=O)Nc3cccc(C)c3C)c2N)cc1,-19%,38%[activator]
CCn1c(=O)c2sccc2n2c(CCCC(=O)Nc3ccc(Oc4ccccc4)cc3)nnc12,1%,1%
FC(F)(F)c1ccc(CNCc2ccco2)cc1,20%,3%
COC(=O)c1ccccc1NC(=O)CSc1nnc2cc(C)c3cc(C)cc(C)c3n12,-9%,-6%
COc1ccc(-c2cc(C(=O)OC(C)C(=O)c3ccccc3)c3cccc(Cl)c3n2)cc1 (stereo not given),-7%,-12%
Cc1ccc(CNC(=O)c2ccc(C(F)(F)F)cc2)cc1,11%,-4%
CCCC(C)NC(=O)Nc1cc(C(=O)NC)ccc1C (stereo not given),2%,-4%
CCOc1cc(Br)c2cc(C(=O)O)[nH]c2c1OC,7%,3%
COc1ccc(CCNC(=O)CCCCn2c(=O)c3ccccc3n(CC(=O)Nc3ccc(C)cc3C)c2=O)cc1OC,-8%,-6%
Cc1cccc(-n2c(SCC(N)=O)nc3c(oc4ccccc43)c2=O)c1,-17%,-5%

# Reprinted from the results shown (three entries):
SMILES,StopGo FLuc,StopGo RLuc
CCOc1cc(Br)c2cc(C(=O)O)[nH]c2c1OC,7%,3%
COc1ccc(CCNC(=O)CCCCn2c(=O)c3ccccc3n(CC(=O)Nc3ccc(C)cc3C)c2=O)cc1OC,-8%,-6%
Cc1cccc(-n2c(SCC(N)=O)nc3c(oc4ccccc43)c2=O)c1,-17%,-5%

# (further entries)
SMILES,StopGo FLuc,StopGo RLuc
CCC1CCCCN1CCCNC(=O)c1c(O)nc2cc(C)ccn2c1=O (stereo not given),1%,-11%
C/C(=N\O)c1cc2cc(Br)ccc2oc1=O,10%,-4%
COCCNC(=O)c1nn(-c2ccc(C)cc2)c(=O)n(C)c1=O,6%,-14%
CCCCCNC(=O)CCCC(=O)NCCCCC,-6%,-7%
Cc1cccc(-c2nc3n(CC(=O)N4CCCCCC4)c(C)cc(=O)n3n2)c1,-6%,-7%
O=C(NC1CCCCC1)C1CCCc2ccccc21 (stereo not given),15%,9%
CC(=O)N1CCOc2cc(S(=O)(=O)NCc3ccccc3Cl)c(C)cc21,-5%,-44%
O=C(CN1c2ccccc2S(=O)(=O)c2ccccc21)Nc1cccc(C(F)(F)F)c1,-19%,3%
C=CCN(C(=O)Cc1nn(C)c(=O)c2ccccc12)C(C)C,-12%,-12%
c1cc(-c2nc(-c3ccc4c(c3)OCCCO4)cs2)cs1,38%[activator],33%[activator]
Cn1nc(C(=O)Nc2ncc(Cc3cc(C(F)(F)F)ccc3Cl)s2)c2ccccc2c1=O,5%,-2%
COc1ccc(CNS(=O)(=O)c2ccc(N3CCCCS3(=O)=O)cc2)cc1,?,?
O=C(CSc1nnc(-c2ccco2)n1C1CCCCC1)N1CCN(c2ncccn2)CC1,8%,2%
O=C(COc1ccc(Cl)cc1)Nc1ccc2c(c1)CCCN2C(=O)c1cccnc1,7%,0%
CC(C)=CCN1CCN(Cc2ccccn2)CC1,7%,-6%
CC(=O)c1cccc(NC(=O)C2(c3cccc(Br)c3)CCCC2)c1,-17%,3%
Clc1cccc(CNCCCSc2nnnn2-c2ccccc2)c1,-10%,0%
COCCn1c(CCC(=O)Nc2ccc(C)cc2)nc2c1c(=O)[nH]c(=O)n2CC(C)C,0%,17%
Cc1[nH]c2c(C(=O)NC3CCCC3)cccc2c1C,116%[activator],23%
CCCNC(=O)c1ccc(Cl)nc1,-8%,-1%
COc1cc(Cl)c(C)cc1NC(=O)c1cc(S(=O)(=O)N2CCCC2)ccc1F,-4%,-7%
CCCCOc1ccc(-c2csc(-c3nc(-c4ccc(F)cc4)cs3)n2)cc1,0%,-1%
COC(=O)c1sc(NC(=O)CCN2CCc3ccccc32)c(C(=O)OC)c1C,3%,-4%
COc1ccc(C(=O)Nc2ccc(O)c(-c3nc4ccccc4o3)c2)c(OC)c1,3%,-4%
Cc1c2cnn(-c3ccccc3)c(=O)c2c(C)n1C(C)C(=O)Nc1ccc(Br)cc1F (stereo not given),-21%,-19%
CC(C)(C)C(=O)Nc1cc2nn(-c3ccccc3)nc2cc1Cl,-82%,3%
COc1ccccc1CNC(=O)c1ccccc1,106%[activator],24%
CC1OC(OC2CCC3(C=O)[C@H]4CCC5(C)C(C6=CC(=O)OC6)CCC5(O)[C@@H]4CCC3(O)C2)CC(O)C1O (stereo not given in full),?,0.28µM*
CCOc1ccc(NC(=O)N(C)CCc2c(C)nn(C)c2C)cc1,16%,-5%
CCOc1ccc(OCC(=O)NCCc2c[nH]c3ccccc23)cc1,19%,-2%
CCc1cccc(CC)c1NC(=O)CC(C)(C(=O)O)c1ccccc1 (stereo not given),-2%,4%
CC(C)Cn1c(Cn2cccn2)nc2cc(NC(=O)COc3ccc(Cl)cc3)ccc21,?,?
CCc1cc(C(=O)Nc2sc(C)c(CC)c2C#N)no1,92%[activator],-2%
CC1=Nc2ccccc2N=C(NC(=O)c2ccccc2)C1c1ccccc1 (stereo not given),32%[activator],90%[activator]
CCCc1cc(=O)oc2cc(C)cc(OCC(=O)NCc3cccnc3)c12,48%[activator],56%[activator]
CCCCCOC(=O)CSc1nc2sc3c(c2c(=O)n1Cc1ccccc1)CC(C)(C)OC3,-14%,-5%
O=C(NCCc1cccnc1)c1cccc(Cl)c1,78%[activator],21%
Cc1ccc(C(=O)NNC(=O)c2c3c(nc4ccccc24)CCCC3)cc1,76%[activator],56%[activator]
CC(Nc1ccc(-c2nc(-c3cccnc3)no2)cc1[N+](=O)[O-])c1ccccc1 (stereo not given),5%,-10%
CCN(c1cccc(C)c1)S(=O)(=O)c1ccc(-n2cccn2)cc1,-2%,36%[activator]
COc1ccc(N2CCN(c3oc(/C=C/c4ccc(F)cc4)nc3C#N)CC2)cc1,0%,9%
CC(C)C(=O)c1cc2c(cc1NC(=O)c1cccs1)OCCO2,-12%,-11%
Cc1c(C=O)c(C)n(C)c1C,0%,0%
CC(Oc1ccccc1C(N)=O)C(=O)Nc1ccccc1C(F)(F)F (stereo not given),12%,3%
CC(C)CNC(=O)c1cccc(NC(=O)C2CCCCC2)c1,6%,40%[activator]
CCOC(=O)C(NC(=O)/C=C/c1cc(Cl)c(OCC)c(OC)c1)C(=O)OCC,11%,7%
COc1ccc(S(=O)(=O)Nc2nc3ccccc3nc2Nc2ccc(C)c(C)c2)cc1,50%[activator],91%[activator]
CC(=O)Nc1ccc(S(=O)(=O)NC2(C(F)(F)F)NC(=O)N(c3ccc(C)cc3)C2=O)cc1 (stereo not given),-16%,-10%
Cc1cccc2c(=O)c(-c3ccc4c(c3)OCO4)c(NC(=O)c3ccccc3F)oc12,4%,1%
CSc1ccc(CCNS(=O)(=O)c2cc(-c3cc(C)no3)ccc2C)cc1,-27%,169%[activator]
COc1ccc(-c2nc3cc(NC(=O)CCc4ccccc4)ccc3o2)cc1,126%[activator],26%
O=C(Cn1nc(-c2ccc(Cl)cc2)c2ccccc2c1=O)N1CCCCC1,5%,2%
O=C(NCCc1ccccc1)c1cc2ccccc2[nH]1,194%[activator],40%[activator]
CCC(=O)N1c2ccccc2CC1C(=O)NCCCN1CCN(c2cc(C)ccc2C)CC1 (stereo not given),-26%,-24%
COCCNC(=O)CSc1nc2ccccc2nc1Cc1ccc(C)cc1,-7%,3%
CCCCn1c(=O)[nH]c(=O)c2c1nc(CCC(=O)NC1CCCCCC1)n2CC(C)C,2%,14%
Cc1ccc(-c2nc3nc(CN4CCCC4)cc(=O)n3[nH]2)cc1,-2%,0%
CCCCOc1ccc(C(=O)NCCS(=O)(=O)N2CCN(c3ccccc3OC)CC2)cc1,18µM*,?
O=C(NCCc1c[nH]c2ccccc12)c1cnccn1,141%[activator],-5%
CSc1ccc(CCNC(=O)CCc2c(C)nc3ncnn3c2C)cc1,-22%,-13%
# Next results
SMILES,StopGo FLuc,StopGo RLuc
CC(=O)c1cccc(NC(=O)C(C)N2CCN(C(=O)c3cccs3)CC2)c1 (stereo not given),5%,-2%
CCOc1ccc(NC(=O)/C=C\C(=O)N(c2ccc(C(C)C)cc2)C(C(=O)NCc2ccco2)c2ccc(F)cc2)cc1 (stereo not given),?,-23%
O=C(Nc1c(O)c2ccccc2oc1=O)c1cccc(F)c1,-15%,-4%
O=C(c1ccn(COc2cccc(Cl)c2)n1)N1CCN(Cc2ccccc2F)CC1,-9%,-7%
COc1ccc(Cl)cc1NC(=O)CCn1cnc2c1c(=O)n(C)c(=O)n2C,13%,-5%
O/N=C/c1ccccc1I,18%,2%
CC(Oc1ccc2ccc(=O)oc2c1)C(=O)N1CCCCCC1 (stereo not given),8%,4%
CCc1cnc2c(c1SCC(=O)c1ccc(Cl)cc1)c(=O)n(C)c(=O)n2C,-23%,-19%
Cc1ccc(S(=O)(=O)c2[nH]c(-c3ccccc3)nc2SCC(=O)NC(C)(C)C)cc1,-15%,113%[activator]
Cc1ccc2nc(/C(C#N)=C/c3ccc(-c4ccc(Cl)cc4)o3)[nH]c2c1,13%,7%
CS(=O)(=O)c1ccc([C@@H](O)[C@@H](CO)NC(=O)C(Cl)Cl)cc1,-5%[11.5 µM],-3%
COc1ccc(-c2nc3scc(CCNC(=O)c4cccc(Br)c4)n3n2)cc1,-18%,22%
CCN(CC)S(=O)(=O)c1ccc(OC)c(NC(=O)CC2CCCC2)c1,21%,110%[activator]
O=C(Cn1ncn2nc(-c3cccs3)cc2c1=O)NCc1cccc(Br)c1,-9%,-8%
O=C(CSc1nnc(-c2ccc(S(=O)(=O)N3CCCCCC3)cc2)o1)c1ccc(Cl)cc1,-6%,-3%

# One compound at a time (already shown):
# CCc1cc(C(=O)Nc2sc(C)c(CC)c2C#N)no1 is entered as StopGo FLuc = 92%[activator]; StopGo RLuc = -2%
# Cc1c(C=O)c(C)n(C)c1C is entered as StopGo FLuc = 0%; StopGo RLuc = 0%
# O=C(Nc1c(O)c2ccccc2oc1=O)c1cccc(F)c1 is entered as StopGo FLuc = -15%; StopGo RLuc = -4%

# Next part
SMILES,StopGo FLuc,StopGo RLuc
Cc1ccn2c(NC(=O)c3cccc(Cl)c3)c(-c3ccccc3)nc2c1,14%,-13%
O=C(Nc1cccnc1)c1cc(-c2cccc(Cl)c2)on1,-2%,-7%
O=Cc1c(-c2ccc(F)cc2)[nH]c2ccccc12,0%,47%[activator]
COCCCNc1oc(-c2ccc(F)cc2)nc1C#N,208%[activator],8%
Cc1ccc2c(c1)C(O)(CC(=O)c1ccccn1)C(=O)N2 (stereo not given),19%,8%
COc1ccc(-c2cc(=O)n3[nH]c(C)nc3n2)cc1OC,-2%,-4%
CC(=O)Oc1ccc(CC(=O)Nc2ccc(O)c(-c3nc4ccccc4o3)c2)cc1,0%,21%
CS(=O)Cc1cccc(C(=O)O)c1 (stereo not given),12%,5%
Cc1ccn2c(Nc3ccc4c(c3)OCCO4)c(-c3ccc(Cl)s3)nc2c1,0%,15%
CC(=O)Nc1nonc1-c1nnc(SCC(=O)Nc2cccc(C)c2C)n1-c1ccccc1,8%,19%
Cc1cccc2c(=O)c(-c3ccc4c(c3)OCO4)c(NC(=O)CC(C)C)oc12,10%,3%
COc1ccc(C(=O)OCC(=O)Nc2cc(OC)ccc2OC)c(C)c1,19%,18%
O=C(CSc1ccc2ccccc2c1)Nc1ccc2c(c1)OCCO2,126%[activator],22%
CCc1ccc2oc(C(=O)Nc3ccccc3C)cc(=O)c2c1,28%,-4%
COc1cc(/C=C(/C#N)C(=O)C(C)C)cc(Br)c1O,15%,9%
CN(CC(=O)Nc1cccc(F)c1)Cc1ncc(-c2ccccc2)o1,6%,5%
COc1ccc2c(C)c(CCC(=O)NCCCO)c(=O)oc2c1C,0%,-5%
COc1cccc(NC(=O)c2csc3c2CCCCC3)c1,194%[activator],-1%
COc1ccc(NC(=O)c2nnn(CC(=O)Nc3c(C)cc(C)cc3C)c2N)cc1OC,-12%,5%
COc1ccc(-n2c(=O)c3ccc(C(=O)NCc4ccc(C)cc4)cc3n(CC(=O)Nc3cccc(F)c3)c2=O)cc1,12%,240%[activator]
O=C(CC(=O)c1ccc(F)cc1)c1ccc(F)cc1,221%[activator],23%
O=C1CCC(C(=O)OCc2cccc(Cl)c2)=NN1,7%,1%
COc1ccc(NC(=O)CN(c2ccc(C)cc2)S(=O)(=O)c2cccs2)cc1,-7%,2%
COc1ccc(C2=NN(C(=O)c3ccccc3)C(c3ccccc3)C2)cc1 (stereo not given),1%,27%
Cc1ccc(NC(=O)Cn2c(C)cc(C)c(C#N)c2=O)cc1F,-7%,2%
O=C1NC2(CCCCC2)N(C(=O)c2ccc(Cl)cc2)C2=C1CCCC2,-7%,-3%

# Assay outcomes deposited in PubChem BioAssay by National Center for Advancing Translational Sciences (NCATS).
